Source: PubChem
FGF22 binding – FGF22 (human) thermal shift binding; 340,000 compounds, 1.5% hits; Q9HCT0; calls only at 9.99 µM; recombinant FGF22 thermal shift, SYPRO orange fluorescence; percent of sucrose octasulfate shift, DMSO zero;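 active = melting point raised past a set limit in the mean and every replicate; three in four hits are not shown here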
Target sequence (Q9HCT0 whole entry, looked up): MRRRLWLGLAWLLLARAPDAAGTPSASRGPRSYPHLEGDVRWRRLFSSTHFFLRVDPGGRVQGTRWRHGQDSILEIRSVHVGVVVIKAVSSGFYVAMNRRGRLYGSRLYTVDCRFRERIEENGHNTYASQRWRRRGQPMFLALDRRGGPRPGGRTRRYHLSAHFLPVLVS
Ecoli rRNA inh – selective bacterial rRNA inhibition in E. coli; 350,000 compounds, 1.6% hits; E. coli WT GFP vs humanized-ribosome RFP mutants, fluorescence, 24 h; stronger effect = lower value; DMSO median 0, no signal -100; GFP signal change (wild-type ribosome), % (test concentration not listed);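 active = significant combined selectivity score with lowered wild-type GFP, culture density cut under 30%, mutant RFP and density less affected; inactive = any of these conditions unmet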; note: one replicate is shown; some compounds called inactive have numbers as strong as hits
Ecoli rRNA inh OD600 – second read-out of Ecoli rRNA inh, no call of its own (marks repeat the call); OD600 change, %; measured here: OD600 growth;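 optical density of the mix in the first replicate; 0 = DMSO median and -100 = no signal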
Ecoli rRNA inh RFP – further read-out of Ecoli rRNA inh, marked with its call; RFP signal change, %; measured here: RFP humanized mutant strains;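 first replicate; 0 = DMSO median and -100 = no signal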
* hit, by the source's call; i = inactive; & = joins results of further samples. These rows are one share of the data, so the mix of outcomes need not match the whole.

SMILES	FGF22 binding	Ecoli rRNA inh	Ecoli rRNA inh OD600	Ecoli rRNA inh RFP
C[C@@H]1CN([C@H](C)CO)C(=O)c2cccc(NC(=O)C3CC3)c2O[C@@H]1CN(C)C(=O)Nc1ccc2c(c1)OCO2	i	3	5	2.7
COC(=O)C[C@H]1C[C@H]2c3cc(NC(=O)c4ccc5c(c4)OCO5)ccc3O[C@H]2[C@@H](CO)O1	i	-4	0	0.2
CN1C(=O)c2cc(NC(=O)c3cc(F)cc(F)c3)ccc2OC[C@@H]2O[C@@H](CC(=O)O)CC[C@@H]21	i	-2	-2	0.5
C[C@@H]1CN([C@H](C)CO)C(=O)c2cc(NC(=O)CCC(F)(F)F)ccc2O[C@@H]1CN(C)Cc1ccc(C(=O)Nc2ccccc2N)cc1	i	4	0	0.5
O=C(C[C@H]1CC[C@H]2[C@@H](COC[C@@H](O)CN2C(=O)c2ccccn2)O1)N1CCN(c2ccccc2)CC1	i	3	5	-1.9
O=C(c1ccc(F)cc1)N1C[C@@H]2[C@H](c3ccccc31)[C@@H](CO)N2Cc1ccc2c(c1)OCO2	i	-9	-19	0.1
CO[C@H]1CN(C)C(=O)c2cc(NS(=O)(=O)c3cccc(F)c3)ccc2OC[C@@H](C)NC[C@@H]1C	i	4	6	-2.7
CC(=O)Nc1ccc2c(c1)C(=O)N(C)[C@H]1CC[C@H](CC(=O)NCC3CC3)O[C@@H]1CO2	i	-4	-2	0.1
CS(=O)(=O)N1CC(=O)N2[C@H](CO)[C@H](c3ccc(C#CCc4ccccc4)cc3)[C@@H]2C1	i	0	5	-2.9
C/C=C/c1ccc([C@@H]2[C@H](CO)N(C(=O)c3cnccn3)C23CN(C(=O)CC)C3)cc1	i	1	-4	1.3
CC(C)CC#Cc1cnc2c(c1)C(=O)N([C@H](C)CO)C[C@@H](C)[C@@H](CN(C)Cc1cncnc1)O2	i	2	15	-1.0
C[C@H](O)C#Cc1ccc([C@@H]2[C@@H](CO)N3CCCCN(CC4CC4)C[C@H]23)cc1	i	0	5	1.7
COCC(=O)Nc1ccc2c(c1)[C@@H]1C[C@@H](CC(=O)NC3CCCCC3)O[C@@H](CO)[C@@H]1O2	i	0	0	1.7
C[C@@H]1CN([C@H](C)CO)C(=O)c2cc(-c3ccc(F)cc3)cnc2O[C@H]1CN(C)CC1CCOCC1	i	2	8	-5.2
C[C@H]1CN([C@@H](C)CO)S(=O)(=O)c2ccc(C3=CCCCC3)cc2O[C@@H]1CN(C)C(=O)CC1CC1	i	-13	-32	-2.8
C[C@H](CO)N1C[C@H](C)[C@@H](CN(C)Cc2cccnc2)Oc2ncc(C#CCc3ccccc3)cc2C1=O	i	2	-11	15
CCCCNC(=O)C[C@H]1C[C@@]2(C(=O)OC)C(=C[C@H](C(C)(C)C)O[C@@H]2C)N(CCC2=CCCCC2)C1=O	i	3	6	-0.6
O=C(NCC[C@@H]1CC[C@@H](NC(=O)c2ccncc2)[C@H](CO)O1)Nc1ccc(Cl)cc1	i	-9	-8	-0.9
COc1ccc(CN(C)C[C@H]2OCCCC[C@H](C)Oc3ccc(NS(=O)(=O)c4ccc(C)cc4)cc3C(=O)N([C@@H](C)CO)C[C@H]2C)cc1	i	1	-12	3.3
CCCC#Cc1ccc([C@H]2[C@H](CO)N3CCCCN(S(C)(=O)=O)C[C@@H]23)cc1	i	1	-5	-1.1
O=C([C@H]1[C@H](CO)[C@H]2Cn3c(cccc3=O)[C@@H]1N2CC1CCCCC1)N1CCOCC1	i	1	8	1.5
O=C(c1ccccc1F)N1C[C@@H]2[C@H](c3ccccc31)[C@H](CO)N2C(=O)c1ccc(F)cc1	i	-6	-6	0.3
C[C@@H]1CN([C@@H](C)CO)C(=O)c2cc(NC(=O)Nc3cccc4ccccc34)ccc2O[C@@H]1CN(C)C(=O)Nc1ccc(C(F)(F)F)cc1	i	-8	-11	-4.1
O=C(Nc1cccc(Cl)c1)N1C[C@@H]2[C@H](c3ccccc31)[C@@H](CO)N2Cc1ccccc1Cl	i	-22	-43	22
C[C@@H]1CCCCO[C@@H](CN(C)C(=O)C2CCCCC2)[C@@H](C)CN([C@H](C)CO)C(=O)c2cc(NC(=O)CCCN(C)C)ccc2O1	i	3	2	-2.4
Going on with the list:
SMILES	FGF22 binding	Ecoli rRNA inh	Ecoli rRNA inh OD600	Ecoli rRNA inh RFP
C[C@H]1CN([C@@H](C)CO)C(=O)Cc2cc(NC(=O)CCN3CCOCC3)ccc2O[C@@H]1CN(C)Cc1ccc(C(=O)O)cc1	i	4	11	-2.9
C[C@@H]1CN([C@@H](C)CO)C(=O)Cc2cc(NC(=O)Nc3ccc4c(c3)OCO4)ccc2O[C@@H]1CN(C)Cc1ccc(Oc2ccccc2)cc1	i	1	8	3.1
COc1ccc2c3c(n(C)c2c1)[C@H](CO)N(C)CC31CN(C(=O)c2ccc3c(c2)OCO3)C1	i	1	-2	1.2
CO[C@H]1CN(C)C(=O)c2cc(NC(=O)c3ccccc3)ccc2OC[C@@H](C)N(C)C[C@H]1C	i	1	7	-2.5
COCCNC(=O)C[C@H]1CC[C@@H]2[C@@H](COc3ccc(NC(=O)COC)cc3C(=O)N2C)O1	i	4	2	-2.6
C[C@@H]1CCCCO[C@@H](CN(C)C(=O)Nc2ccc3c(c2)OCO3)[C@@H](C)CN([C@H](C)CO)C(=O)c2cc(NC(=O)Nc3cccc4ccccc34)ccc2O1	i	2	3	-0.9
Cc1noc(C)c1S(=O)(=O)Nc1ccc2c(c1)C(=O)N([C@H](C)CO)C[C@H](C)[C@H](CN(C)C(=O)CCC(F)(F)F)OCCCC[C@@H](C)O2	i	2	1	0.0
CN(C)CC(=O)Nc1ccc2c(c1)[C@H]1C[C@H](CC(=O)NCc3ccc(Cl)cc3)O[C@@H](CO)[C@H]1O2	i	2	4	-4.8
N#C[C@H]1[C@@H](c2ccccc2-c2ccc(F)cc2)[C@H](CO)N1C(=O)Cc1ccccc1	i	-40	-70	-1.0
CCN1[C@@H]2Cn3c(ccc(C4=CCCC4)c3=O)[C@H]1[C@@H](C(=O)N[C@H](C)c1ccccc1)[C@@H]2CO	i	-1	1	0.7
CCNC(=O)C[C@@H]1CC[C@H]2[C@H](COc3ccc(NC(=O)Nc4c(C)noc4C)cc3C(=O)N2C)O1	i	-4	-5	-1.3
Cn1cnc(S(=O)(=O)N2CC[C@H]3[C@H](CO)Nc4ccc(C#Cc5ccc(F)cc5)cc4[C@H]32)c1	i	-50	-70	-12
C/C=C/c1cccc(-c2nc(C(=O)NCCC)cc3c2[C@@H](CCO)N([S@](=O)C(C)(C)C)C3)c1	i	-5	-7	26
C[C@@H]1CCCCO[C@H](CN(C)C(=O)Cc2ccccc2)[C@H](C)CN([C@@H](C)CO)C(=O)c2cc(NC(=O)CCCN(C)C)ccc2O1	i	0	0	1.2
C[C@H](CO)N1C[C@H](C)[C@H](CN(C)Cc2ccc(F)cc2)Oc2cc(C#Cc3ccccn3)ccc2S1(=O)=O	i	-2	5	11
CO[C@@H]1CN(C)C(=O)c2ccc(NC(=O)C3CCC3)cc2OC[C@H](C)N(Cc2ccccn2)C[C@@H]1C	i	-2	-3	-1.0
C[C@@H]1CCCCO[C@H](CN(C)C(=O)CCCN(C)C)[C@H](C)CN([C@@H](C)CO)C(=O)c2cc(NS(=O)(=O)c3ccc(F)cc3)ccc2O1	i	-4	-2	-1.7
Cc1noc(C)c1NC(=O)N(C)C[C@@H]1Oc2cc(C#CCC3CCCC3)ccc2S(=O)(=O)N([C@@H](C)CO)C[C@H]1C	i	0	-19	5.0
C[C@@H]1CCCCO[C@H](CN(C)S(=O)(=O)c2ccc(Cl)cc2)[C@H](C)CN([C@@H](C)CO)C(=O)c2cc(NC(=O)Nc3ccc(F)cc3)ccc2O1	i	-1	9	-6.7
C[C@@H]1CN([C@H](C)CO)C(=O)c2cc(NC(=O)C3CC3)ccc2O[C@H]1CN(C)Cc1ccccc1	i	1	25	-1.6
CCCNC(=O)N1[C@H](CO)[C@H](c2ccccc2)[C@@H]1CNC(=O)c1cccc(F)c1	i	-10	-16	2.2
O=C(NC1CCCCC1)N1CC(=O)N2[C@H](CO)[C@@H](c3ccc(-c4cccc(F)c4)cc3)[C@@H]2C1	i	-57	-73	-14
CO[C@@H]1CN(C)C(=O)c2ccc(NC(=O)c3ccc4c(c3)OCO4)cc2OC[C@H](C)N(CC2CC2)C[C@H]1C	i	-1	-2	-3.0
C[C@H](CO)N1C[C@H](C)[C@@H](CN(C)C(=O)Nc2ccccc2F)OCc2cn(nn2)CCCC1=O	i	1&9	3&1	-0.5&0.5
COc1ccc(C#Cc2cnc3c(c2)C(=O)N([C@@H](C)CO)C[C@@H](C)[C@@H](CN(C)C(C)=O)O3)cc1	i	-3	4	-3.2

Entries from the list above containing a CF3 group (3):
SMILES	FGF22 binding	Ecoli rRNA inh	Ecoli rRNA inh OD600	Ecoli rRNA inh RFP
C[C@@H]1CN([C@H](C)CO)C(=O)c2cc(NC(=O)CCC(F)(F)F)ccc2O[C@@H]1CN(C)Cc1ccc(C(=O)Nc2ccccc2N)cc1	i	4	0	0.5
C[C@@H]1CN([C@@H](C)CO)C(=O)c2cc(NC(=O)Nc3cccc4ccccc34)ccc2O[C@@H]1CN(C)C(=O)Nc1ccc(C(F)(F)F)cc1	i	-8	-11	-4.1
Cc1noc(C)c1S(=O)(=O)Nc1ccc2c(c1)C(=O)N([C@H](C)CO)C[C@H](C)[C@H](CN(C)C(=O)CCC(F)(F)F)OCCCC[C@@H](C)O2	i	2	1	0.0

Later entries
SMILES	FGF22 binding	Ecoli rRNA inh	Ecoli rRNA inh OD600	Ecoli rRNA inh RFP
C[C@@H]1CCCCO[C@@H](CN(C)C(=O)c2ccccc2)[C@H](C)CN([C@H](C)CO)C(=O)c2cc(NC(=O)c3ccccc3)ccc2O1	i	-3	6	-1.9
CCCC(=O)Nc1ccc2c(c1)C(=O)N(C)C[C@@H](OC)[C@@H](C)CN[C@@H](C)CO2	i	3	10	-0.5
Cc1noc(C)c1NC(=O)N(C)C[C@@H]1OCCCC[C@H](C)Oc2ccc(NC(=O)c3ccncc3)cc2C(=O)N([C@H](C)CO)C[C@H]1C	i	2	13	-0.5
Cc1noc(C)c1S(=O)(=O)N(C)C[C@@H]1Oc2ccc(NC(=O)C3CC3)cc2CC(=O)N([C@H](C)CO)C[C@@H]1C	i	1	-3	0.7
CC(C)C#Cc1ccc([C@H]2[C@H](C#N)N(C(=O)c3ccccn3)[C@H]2CO)cc1	i	2	-8	2.5
CC(=O)N1CC2(C1)[C@H](c1ccc(-c3ccc(F)cc3)cc1)[C@H](CO)N2C(C)=O	i	-3	-8	1.5
N#Cc1ccc(OCCCN2CCC(C(O)(c3ccccc3)c3ccccc3)CC2)c(F)c1	i	8	-26	22
C[C@@H]1CN([C@@H](C)CO)C(=O)Cc2cc(NC(=O)Nc3ccc(C(F)(F)F)cc3)ccc2O[C@@H]1CN(C)Cc1ccc(Cl)c(Cl)c1	i	6	4	0.3
CC(C)CC#Cc1cnc2c(c1)C(=O)N([C@H](C)CO)C[C@H](C)[C@@H](CN(C)C(=O)C1CCOCC1)O2	i	-7	1	-0.4
Cc1cc(N2CCN(C(=O)OC(C)(C)C)C[C@@H]2C)ccc1N1CCN(Cc2ccccc2)[C@@H](C)C1	i	-1	-5	-3.6
CN(C)C(=O)c1ccc(-c2ccc([C@@H]3[C@H]4CN(CCC(F)(F)F)CCCCN4[C@H]3CO)cc2)cc1	i	-1	15	-0.9
CN1c2ccc(-c3cccc(F)c3)cc2[C@@H]2[C@@H](CCN2C(=O)Cc2ccccc2)[C@H]1CO	i	-53	-72	-5.1
C[C@@H]1CN([C@@H](C)CO)C(=O)c2cc(C#C[C@@H](C)O)cnc2O[C@H]1CN(C)C(=O)Cc1ccccn1	i	5	5	-0.2
Cc1ccccc1S(=O)(=O)N1[C@@H](C#N)[C@@H](c2ccccc2)[C@@H]1CO	i	-1	7	-1.5
CCS(=O)(=O)N1Cc2cc(C(=O)O)nc(-c3cccc(-c4ccc(C#N)cc4)c3)c2[C@@H]1CCO	i	4	4	-4.2
Cc1ccccc1-c1ccc([C@H]2[C@@H](CO)N3CCCCN(C(=O)NC4CCCC4)C[C@@H]23)cc1	i	-58	-69	-9.8
O=C(Nc1ccc(C(F)(F)F)cc1)N[C@@H]1CC[C@H](CCNC(=O)c2ccccc2F)O[C@H]1CO	i	-8	-6	3.4
CO[C@H](CN(C)C(=O)c1cnccn1)[C@@H](C)CN([C@H](C)CO)S(=O)(=O)c1ccc(F)cc1	i	0	14	-1.5
COc1ccc2c3c([nH]c2c1)[C@H](CO)N(C(C)=O)CC31CCN(C(=O)CN2CCOCC2)CC1	i	0	8	4.3
C[C@@H]1CN([C@H](C)CO)C(=O)c2cc(NS(C)(=O)=O)ccc2O[C@@H](C)CCCCO[C@@H]1CN(C)S(=O)(=O)c1ccc(Cl)cc1	i	0	1	0.9

Compounds listed so far that contain an aryl methoxy group, in the order listed:
SMILES	FGF22 binding	Ecoli rRNA inh	Ecoli rRNA inh OD600	Ecoli rRNA inh RFP
COc1ccc(CN(C)C[C@H]2OCCCC[C@H](C)Oc3ccc(NS(=O)(=O)c4ccc(C)cc4)cc3C(=O)N([C@@H](C)CO)C[C@H]2C)cc1	i	1	-12	3.3
COc1ccc2c3c(n(C)c2c1)[C@H](CO)N(C)CC31CN(C(=O)c2ccc3c(c2)OCO3)C1	i	1	-2	1.2
COc1ccc(C#Cc2cnc3c(c2)C(=O)N([C@@H](C)CO)C[C@@H](C)[C@@H](CN(C)C(C)=O)O3)cc1	i	-3	4	-3.2
COc1ccc2c3c([nH]c2c1)[C@H](CO)N(C(C)=O)CC31CCN(C(=O)CN2CCOCC2)CC1	i	0	8	4.3
